# Screens: PubChem, National Center for Advancing Translational Sciences (NCATS)
# EPAC2 ant val = human EPAC2 antagonism, validation; Q8WZA2; EPAC2 Rap1B BODIPY-GDP exchange, fluorescence; Potency, µM (series often up to 112 µM), without a hit: at the top dose activity, negative = inhibition, hits mostly inhibitors; actives 1.7% (n = 16,000); active means well fitted inhibition curve with a large enough effect; inconclusive means small, poorly fitted or top-dose-only effect; inactive means no such curve, though single readings can be large or run the other way;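 further: 100% = activation by cAMP agonist control; nearly all actives have a fitted effect of over 40% in size; the record reuses the description of the EPAC1 agonist screen; inactives centre near -10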
# Target sequence (Q8WZA2 whole entry, looked up): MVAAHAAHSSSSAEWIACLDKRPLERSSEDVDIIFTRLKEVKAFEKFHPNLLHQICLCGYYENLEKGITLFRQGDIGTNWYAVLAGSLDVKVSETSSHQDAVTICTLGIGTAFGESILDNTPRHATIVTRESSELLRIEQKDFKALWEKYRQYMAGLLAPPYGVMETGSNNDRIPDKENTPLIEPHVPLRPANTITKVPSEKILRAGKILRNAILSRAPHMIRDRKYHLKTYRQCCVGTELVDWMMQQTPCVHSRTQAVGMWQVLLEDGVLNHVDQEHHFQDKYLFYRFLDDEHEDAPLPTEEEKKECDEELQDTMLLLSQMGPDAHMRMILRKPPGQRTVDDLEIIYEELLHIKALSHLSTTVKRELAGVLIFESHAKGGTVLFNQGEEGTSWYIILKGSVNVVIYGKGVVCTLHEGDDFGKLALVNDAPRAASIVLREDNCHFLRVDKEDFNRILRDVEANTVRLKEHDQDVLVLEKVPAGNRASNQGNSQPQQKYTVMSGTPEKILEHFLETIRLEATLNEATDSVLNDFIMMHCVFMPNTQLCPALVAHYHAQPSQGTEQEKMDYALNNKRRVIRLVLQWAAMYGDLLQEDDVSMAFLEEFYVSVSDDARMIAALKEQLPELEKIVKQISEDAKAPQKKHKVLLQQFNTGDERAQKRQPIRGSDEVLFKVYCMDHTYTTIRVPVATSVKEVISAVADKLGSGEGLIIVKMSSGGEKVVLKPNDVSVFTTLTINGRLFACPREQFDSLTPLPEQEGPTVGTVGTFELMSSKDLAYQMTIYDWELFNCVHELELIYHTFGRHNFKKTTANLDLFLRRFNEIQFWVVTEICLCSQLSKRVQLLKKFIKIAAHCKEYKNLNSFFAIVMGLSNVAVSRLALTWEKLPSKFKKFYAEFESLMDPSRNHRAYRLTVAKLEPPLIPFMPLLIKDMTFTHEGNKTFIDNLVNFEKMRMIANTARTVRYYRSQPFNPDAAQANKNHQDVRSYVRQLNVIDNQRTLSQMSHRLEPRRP
#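 Fluorescent exchange read-out: 100 nM EPAC2 with 250 nM RAP1B–BODIPY-GDP and 50 uM GDP; BODIPY-GDP release lowers fluorescence. Read at 480/540 nm every 5 min for 30 min at room temperature; normalized to 6.5 mM cAMP.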
# The depositor's hits bear a star; ? = inconclusive; & = joins results of further samples; [ ] = remark or other dose. Potency means the concentration at half of the fitted maximal effect. The list is partial, so the mix of outcomes need not match the whole.
SMILES,EPAC2 ant val
C[C@@H]1[C@H](c2ccccc2)OCCS(=O)(=O)N1Cc1ccc(F)cc1,?
CCN(CC)CCN(C)c1ccc(/C=C/c2ccnc3ccccc23)cc1,2%
C=CCN(C(=O)OC(C)(C)C)S(=O)(=O)NCc1ccccc1,-10%
CCCCC(=O)OCC(=O)[C@H]1[C@H](C)C[C@H]2[C@@H]3C[C@H](F)C4=CC(=O)C=C[C@]4(C)[C@@]3(F)[C@@H](O)C[C@@]21C,-23%
Clc1ccccc1-c1nc(NCc2cccnc2)c2ccccc2n1,-32%
C=C1C(=C/C=C2\CCC[C@]3(C)[C@@H]([C@H](C)CCCC(C)(C)O)CC[C@@H]23)C[C@@H](O)C[C@@H]1O,-9%
COc1cc2c(N3CCN(C(=O)Nc4ccc(OC(C)C)cc4)CC3)ncnc2cc1OCCCN1CCCCC1,-5%
OC(c1ccc2c(c1)CN(Cc1c[nH]c3ccccc13)CCO2)c1ccccn1 (centres undefined),-4%
CC(C)(Oc1ccc(CCNC(=O)c2ccc(Cl)cc2)cc1)C(=O)O,-12%
CS(=O)(=O)Nc1cccc(-c2ccc3ncnc(Nc4ccc(F)cc4)c3c2)c1,-15%
CN(Cc1ccco1)c1ccnc(-c2cccnc2)n1,11%
COc1ccc(-n2c(=O)c(-c3cn(C)c4ccccc34)nc3cncnc32)cc1,?
COCCn1c(=O)c(-c2ccc(F)cc2)nc2cnc(Oc3cccc(Cl)c3)nc21,-21%
COc1ccccc1CNc1ncncc1-c1ccccc1C,?
O=C(c1ccncc1)N1CCC2(CCCN(c3ccncc3)C2)CC1,?
COC(=O)C[C@H]1c2cc(C(F)(F)F)ccc2S(=O)(=O)N1c1ccc(N(C)C)cc1,?
COc1ccc(SCCN2CC[C@@H](C)CCC2=O)cc1,2%
O=C(C[C@H]1C(=O)N(C2CCCCC2)C[C@@H]1Cc1ccccc1)Nc1ccccc1,?
Cc1ncc2c(c1CNC(=O)c1ccc3c(c1)OCO3)CCN(C(=O)/C=C/c1ccc(Cl)cc1)C2,10%
CC(=O)c1c(O)cc(O)cc1O,-6%

# Some of the entries above, reformatted.
Compound	EPAC2 ant val
COC(=O)C[C@H]1c2cc(C(F)(F)F)ccc2S(=O)(=O)N1c1ccc(N(C)C)cc1	?
COc1ccc(SCCN2CC[C@@H](C)CCC2=O)cc1	2%
O=C(C[C@H]1C(=O)N(C2CCCCC2)C[C@@H]1Cc1ccccc1)Nc1ccccc1	?
Cc1ncc2c(c1CNC(=O)c1ccc3c(c1)OCO3)CCN(C(=O)/C=C/c1ccc(Cl)cc1)C2	10%

# Back to the main list; the 6 compounds before the break are reprinted first.
SMILES,EPAC2 ant val
O=C(c1ccncc1)N1CCC2(CCCN(c3ccncc3)C2)CC1,?
COC(=O)C[C@H]1c2cc(C(F)(F)F)ccc2S(=O)(=O)N1c1ccc(N(C)C)cc1,?
COc1ccc(SCCN2CC[C@@H](C)CCC2=O)cc1,2%
O=C(C[C@H]1C(=O)N(C2CCCCC2)C[C@@H]1Cc1ccccc1)Nc1ccccc1,?
Cc1ncc2c(c1CNC(=O)c1ccc3c(c1)OCO3)CCN(C(=O)/C=C/c1ccc(Cl)cc1)C2,10%
CC(=O)c1c(O)cc(O)cc1O,-6%
CNc1ncnc2ccc(-c3cccc(NS(C)(=O)=O)c3)cc12,-7%
COc1ccc(CN2CCC(=O)N(CCO)CC2)cc1OC,12%
CC/C(=C/c1ccccc1OC)c1cc(-c2ccccc2)cc2oc3ccccc3c12,?
COc1cc(/C=C/C(=O)N2CCC=CC2=O)cc(OC)c1OC,7%
CCCCN1CC[C@H]2C=CC[C@@H](C(=O)NCCc3ccccc3)[C@H]2C1=O,-51%
CC(=O)OCC(=O)[C@@]1(O)CCC2C3CCC4=CC(=O)CC[C@@]4(C)[C@]3(F)C(O)C[C@]21C (some centres undefined),-6%
CCCCCCCCCCCCCCCCN,6%
Cc1ccc2ncc(C)c(C)c2c1,-26%
COc1c(O)cc2oc3cc(O)c(CC=C(C)C)c(O)c3c(=O)c2c1CC=C(C)C,?
COc1cc2nc(CCc3nc4cc(OC)c(OC)cc4[nH]3)[nH]c2cc1OC,3%
CN(C)c1ncc2ncc(=O)n(CCc3ccccc3)c2n1,?
Cc1oc(-c2ccccc2NC(=O)C2CCCO2)nc1CNC(=O)c1[nH]c2c(C)ccc(C)c2c1C (centres undefined),-7%
O=C1CC2(CCCC2)CC(=O)N1CCCCN1CCN(c2ncccn2)CC1,?
COc1ccccc1CNc1ncncc1-c1ccc2c(c1)OCO2,?
CCc1c(C)[nH]c2c1C(=O)C(CN1CCOCC1)CC2 (centres undefined),9%
C[C@@H]1C(=O)NC2=Nc3cccc(Cl)c3CN21,-16%&-29%
COc1cc(=O)n2c(c1C(=O)N(C)Cc1nccs1)CCN(Cc1cc3ccccc3s1)CC2,?
CCCN1CCC(=O)N([C@H](CSc2ccccc2)CC(C)C)CC1,-19%
CN1CCN2c3ccccc3Cc3ccccc3C2C1 (centres undefined),-12%&-23%&2%
Cc1nc2ccc(NC(=O)Nc3ccnc4cccnc34)cc2o1,-29%

# As entered above:
# CCCCN1CC[C@H]2C=CC[C@@H](C(=O)NCCc3ccccc3)[C@H]2C1=O @ EPAC2 ant val: -51%
# COc1cc(/C=C/C(=O)N2CCC=CC2=O)cc(OC)c1OC @ EPAC2 ant val: 7%

# (further entries)
SMILES,EPAC2 ant val
COC1=C(OC)C(=O)C(C/C=C(\C)CC/C=C(\C)CC/C=C(\C)CC/C=C(/C)CC/C=C(\C)CC/C=C(\C)CC/C=C(\C)CC/C=C(\C)CC/C=C(\C)CCC=C(C)C)=C(C)C1=O,-6%
C#CCN(Cc1ccc(OC)cc1)S(=O)(=O)C=C,?
Nc1cccc2c1CN(C1CCC(=O)NC1=O)C2=O (centres undefined),6%
CC(=O)Nc1ccn(C2COC(COC(=O)c3ccccc3)O2)c(=O)n1 (centres undefined),-29%
COc1ccc2c3c1OC1C[C@@H](O)C=C[C@@]31CCN(C)C2 (some centres undefined),-5%
O=c1ccc2cc(O)c(O)cc2o1,-9%
OCc1c[nH]c2ccccc12,-17%
Cc1ccc(CN2CCOc3ccc(CN4CCN(CCO)CC4)cc3C2)s1,?
CCC1CN(CCNC(=O)c2ccsc2)Cc2cc(OC)ccc2O1 (centres undefined),6%
CS(=O)(=O)N1CCC2(CCCN(C(c3ccccc3)c3ccccc3)C2)CC1,?
CC(=O)/C=C/c1ccc2c(c1)S(=O)(=O)N(C1CCCC1)[C@H]2CC(C)=O,?
COc1cc(=O)n2c(c1C(=O)N1CCc3ccccc3C1)CCN(Cc1ccc(CO)o1)CC2,-12%
CC(C)C[C@@H](COc1ccccc1)N1CCN(CCc2ccccc2)CCC1=O,32µM*
CN(C)C(=O)c1ccc(-c2ccc3ncnc(N4CCC(C(=O)O)CC4)c3c2)cc1,-7%
CN1CCC2(CC1)CCN(C(=O)c1cccc(F)c1)CC2,-17%
Cc1nccn1CC1CCC2C(C1=O)c1ccccc1N2C (centres undefined),-4%
O=C(NCc1nnc2n1CCN(Cc1cccc(C(F)(F)F)c1)CC2)c1ccncc1,-2%
C=C1C(=CC=C2CCC[C@@]3(C)[C@@H]2CC[C@H]3[C@H](C)CCCC(C)C)C[C@@H](O)C[C@@H]1O,-25%
Cc1c(C)c2c(c(C)c1O)CCC(C)(COc1ccc(CC3SC(=O)NC3=O)cc1)O2 (centres undefined),-1%&-29%
Cc1noc(C)c1-c1ccc2ncnc(N(C)Cc3ccco3)c2c1,-32%
CCCCCc1ccc(-c2cn(CCc3c[nH]c4ccccc34)nn2)cc1,?
O=C(CN1CCN(Cc2ccc3c(c2)OCO3)CC1)N1c2ccccc2Sc2ccccc21,-23%
COc1ccc(Oc2ncc3nc(CCc4ccccc4)c(=O)n(C)c3n2)cc1,-23%
Cc1cnc2ccccc2c1/C=C/c1ccc(N(C)C)cc1,-34%
Cc1noc(C)c1C(=O)N1CCC[C@@]2(CCN(Cc3nccs3)C2)C1,?
COc1ccc(CN2CCOc3ccc(CN4CCC(O)(c5cccnc5)CC4)cc3C2)c(C)c1C,-7%
N[C@H](C(=O)O)C1C(C(=O)O)C1C(=O)O (some centres undefined),-7%
Cc1cnc(CNc2ccnc(-c3ccccc3CN(C)C)n2)cn1,-8%
O=C(OCC(O)CO)c1ccccc1Nc1ccnc2cc(Cl)ccc12 (centres undefined),-7%
CC(=O)Oc1ccc(C)cc1,-18%
COC(=O)C[C@H]1c2cc(F)ccc2S(=O)(=O)N1C1CC1,-11%
CN(Cc1ccco1)c1ccnc(-c2ccoc2)n1,5%
O=c1cc(-c2cccc(O)c2O)oc2ccccc12,-29%
COCc1ccc(CN2Cc3ccccc3OC(c3ccccc3OC)C2)o1 (centres undefined),?
CNC(=O)[C@@H]1C[C@H](Sc2nc3ccccc3[nH]2)CN1Cc1cccc(C(F)(F)F)c1,?
O=Cc1ccnc2ccccc12,-19%
CCCCCCCCN1[C@@H](CC(=O)O)c2cc(F)ccc2S1(=O)=O,?
N#Cc1cccc(-c2ccc3ncnc(NCCN4CCOCC4)c3c2)c1,-12%
O=C(COCCOCCOCC(=O)Nc1c(I)cc(I)c(C(=O)O)c1I)Nc1c(I)cc(I)c(C(=O)O)c1I,?
COc1ccc2c(c1)O[C@@H]1c3ccc(OC)cc3OCC21 (some centres undefined),-10%
C=C1CCC[C@]2(C)C[C@H]3OC(=O)[C@H](CNCCc4ccccc4OC)C3CC12 (some centres undefined),8%
CCCCCCCCCCCCCCCCCCOCC(COP(=O)([O-])OCC[N+](C)(C)C)OC (centres undefined),7%
COC(=O)N1CCC2(CCCN(Cc3cc(C(F)(F)F)cc(C(F)(F)F)c3)C2)CC1,-25%
CC(CC(c1ccccc1)c1ccccc1)NC(C)(C)C (centres undefined),8%
O=S(=O)(O)c1ccc2c(N=Nc3ccc(S(=O)(=O)O)c4ccccc34)c(O)c(S(=O)(=O)O)cc2c1,50µM*
CN(C)CCCCSC(=N)N,-7%&-20%
COc1ccc(C(=O)N2CCC3(CCN(Cc4ccccc4OC)CC3)CC2)cc1,-15%
COC(=O)C(N)CS (centres undefined),-6%
O=c1c(O)c(-c2ccc(O)c(O)c2)oc2cc(O)cc(O)c12,?
Cn1c(=O)c(-c2cc(F)cc(F)c2)nc2cnc(N3CCNCC3)nc21,-7%
O=c1c(-c2ccc(F)c(F)c2)nc2cncnc2n1-c1ccccc1,?
N#Cc1cccc(-c2cc(-n3ccnc3)ncn2)c1,-13%
COCC(=O)N1CCC2(CCCN(c3ccc(-c4ccccc4)cc3)C2)CC1,-10%
COc1cccc2c1C(=O)c1c(O)c3c(c(O)c1C2=O)C[C@@](O)(C(C)=O)C[C@@H]3O[C@H]1C[C@H](N)[C@H](O)[C@H](C)O1,41%[activator][29.6 µM]
CCOC(=O)C[C@H]1c2ccc(C(F)(F)F)cc2S(=O)(=O)N1c1ccccc1,?
O=c1c2ccccc2nc2n1CCc1c-2[nH]c2ccccc12,?
C=CC1=C(C)C2=CC3=NC(=C(CC(=O)[O-])C4=NC(=C(C)C4=C([O-])[O-])C=c4[n-]c(c(C)c4CC)=CC1=N2)C(CCC(=O)[O-])C3C.[Cu+2].[Na+].[Na+].[Na+] (centres undefined),2%
C[C@@H]1C(=O)CC2C(C)(C)CCC[C@]2(C)[C@@]1(O)CCc1ccoc1 (some centres undefined),-20%
CC1CN(c2cc3c(cc2F)c(=O)c(C(=O)O)cn3-c2ccc(F)cc2F)CCN1 (centres undefined),33%[activator]
CC1=CCc2c(cc3oc(C)cc(=O)c3c2O)OC1,?

# Compounds shown so far with a tert-butyl group, in the order listed:
SMILES,EPAC2 ant val
C=CCN(C(=O)OC(C)(C)C)S(=O)(=O)NCc1ccccc1,-10%
CC(CC(c1ccccc1)c1ccccc1)NC(C)(C)C (centres undefined),8%

# Next part.
SMILES,EPAC2 ant val
COCC(=O)Nc1cc(C(=O)NC2Cc3ccccc3C2)cc2nc(-c3cccnc3)n(C)c12,-9%
CCc1nc2cc(C(=O)NC3CCOC(C)(C)C3)cc(NC(=O)c3ccccc3OC)c2n1C (centres undefined),6%
COC(=O)c1cccc(C(=O)N2CCc3c(cnc(C)c3CNC(=O)c3ccsc3)C2)c1,8%
O=C(O)/C=C1\CCCc2ccccc2[C@H]1O,-31%
Cc1noc(C)c1C(=O)N1CCC[C@@]2(CCN(Cc3cc(C(F)(F)F)cc(C(F)(F)F)c3)C2)C1,?
Cc1cnc(CNc2cc(-c3cccc(NS(C)(=O)=O)c3)ncn2)cn1,-7%
COc1cc(=O)n2c(c1C(=O)NCc1ccco1)CCN(Cc1ccc3ccccc3c1)CC2,-14%
Cc1cnc(CNc2cc(-c3cccnc3)ncn2)cn1,-18%
COC(=O)N1CCC2(CCCN(C(=O)Nc3cccc(C#N)c3)C2)CC1,-7%
O=Cc1ccc(N2CCOCC2)cc1,-4%
CC1OC(OC2C(CO)OC(OC3C(CO)OC(O)C(O)C3O)C(O)C2O)C(O)C(O)C1NC1C=C(CO)C(O)C(O)C1O (centres undefined),-5%
COc1ccc2[nH]cc(CCNc3ncncc3-c3ccccc3CN(C)C)c2c1,-21%
CN1CCN(C2=Nc3cc(F)ccc3Cc3ccccc32)CC1,-10%&-15%
C[N+]1(CC(=O)c2ccc(Cl)c(Cl)c2)CCOCC1,5%
O=C1NC(=O)/C(=C/c2ccc(-c3ccc(F)cc3O)o2)S1,7.9µM*
Cc1ccnc(NS(=O)(=O)c2ccc(N)cc2)n1,-18%[56.6 µM]
